Screening data as filed in PubChem.
Yeast UUG start: modulators of start codon recognition fidelity in yeast; hit rate 0.13% among 350,000; S. cerevisiae UUG-firefly luciferase reporter, luminescence/redox ratio; activity score, % at 18.7 µM; AID 602363;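 active = replicate mean at a twofold rise or more, about +100% in these data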;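 also: firefly luciferase made from a UUG start codon reports start codon fidelity; reporter light over untreated wells divided by growth signal over untreated wells; some hits fall short of that in this replicate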
PABP polyA inh: blocks human PABP binding to poly(A) RNA | P11940 | fluorescence polarization | inhibition, % at 35 µM | hit rate 1% among 290,000 | AID 2014;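 active = 50% or more with normal probe brightness, or confirmed in later tests; about a fifth of its hits are not listed in these tables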;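 also: calls also rest on retests at 20 µM and on dose response follow-up; controls were probe without protein and protein plus probe with vehicle; some compounds called inactive have numbers as strong as hits; many hits fall short of the cut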
Target sequence (P11940 whole entry, looked up): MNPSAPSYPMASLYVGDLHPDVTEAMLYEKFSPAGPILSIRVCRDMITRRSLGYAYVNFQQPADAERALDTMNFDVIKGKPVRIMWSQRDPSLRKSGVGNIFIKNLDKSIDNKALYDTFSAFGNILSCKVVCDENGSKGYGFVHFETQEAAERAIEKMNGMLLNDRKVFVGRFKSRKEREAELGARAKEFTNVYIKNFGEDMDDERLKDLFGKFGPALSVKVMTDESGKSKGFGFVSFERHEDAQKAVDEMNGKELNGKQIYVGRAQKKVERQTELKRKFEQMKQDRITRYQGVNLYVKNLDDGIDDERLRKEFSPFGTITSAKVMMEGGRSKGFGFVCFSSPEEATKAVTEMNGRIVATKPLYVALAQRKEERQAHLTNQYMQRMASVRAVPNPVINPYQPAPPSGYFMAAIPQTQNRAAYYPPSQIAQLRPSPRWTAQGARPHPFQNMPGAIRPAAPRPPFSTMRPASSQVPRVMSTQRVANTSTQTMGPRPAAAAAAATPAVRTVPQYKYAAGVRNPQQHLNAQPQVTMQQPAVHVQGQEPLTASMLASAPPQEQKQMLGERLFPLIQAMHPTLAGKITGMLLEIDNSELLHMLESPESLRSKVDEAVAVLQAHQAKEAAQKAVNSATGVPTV
CSC inhib: cancer stem cell inhibition; cancer stem cell-like cells viability, luminescence; inhibition, % at 7.5 µM; hit rate 1.1% among 300,000; AID 2717;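 active = mean at 75% or more and at least half the replicates too; tested in HMLE shEcad cells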;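 also: 0% = median of negative and 100% = median of positive control wells; the first replicate is given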
eIF4H FP inh: inhibitors of RNA binding by human eIF4H. Q15056. eIF4H fluorescence polarization binding assay. inhibition, % at 35 µM. hit rate 0.94% among 290,000. AID 2012;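 active = 50% or more with normal probe brightness, or confirmed in later tests; about a fifth of its hits are not listed in these tables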;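 also: calls also rest on retests at 20 µM and on dose response follow-up; 0% = protein and probe with vehicle and 100% = probe without protein; strong numbers were not always called active; many hits fall short of the cut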
Rce1 inhib: inhibitors of yeast Ras-converting enzyme; Q03530; yeast membranes, quenched prenylated peptide cleavage fluorescence; calls only; hit rate 0.27% among 290,000;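 active = fall in fluorescence gain of 50% or more versus controls, with final raw signal at or below 3038400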;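 also: plate controls were neutral control wells for no effect and wells lacking membranes for full effect; tested at 10 µM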
MT1-MMP act inh: blocks activation of human MT1-MMP | HT1080 RFP-PRO-GFP cells, GFP/RFP ratio fluorescence, overnight; percent of plate control window, DMSO zero | GFP/RFP ratio change, % at 20 µM | hit rate 0.061% among 360,000;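 active = GFP/RFP ratio change of at least 30% with cell ATP level not reduced by more than half and red fluorescence within 50% of control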; also: strong numbers were not always called active
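Compound: 20 µM single dose, 1% DMSO / System: HT1080 RFP-PRO-GFP cells / Controls: DMSO and RFP-L50D-GFP cell wells / Read-out basis: GFP/RFP fluorescence ratio / Schedule: overnight compound exposure at 37 °C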
HIV Env fusion: inhibitors of HIV Env-mediated cell fusion | hit rate 1.1% among 360,000 | inhibition, % at 12.3 µM | AID 651610 | HeLa-JRFL Env/CEM21 cell fusion, luciferase;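 active = mean replicate inhibition score of at least 50 and every replicate individually at or above 50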;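 also: 0% = plate neutral controls and 100% = maraviroc near 300 nM; one replicate is shown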
eIF4H FP inh retest: also measured in eIF4H FP inh; calls as there; inhibition, %; compound at 20 µM; confirmation average;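 mean of two retest wells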
PABP polyA inh retest: also measured in PABP polyA inh; calls as there; inhibition, %; compound at 20 µM; confirmation repeats;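 mean of two retest wells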
MT1-MMP act inh RFP: second read-out of MT1-MMP act inh, no call of its own (marks repeat the call); RFP signal change, %; measured here: RFP expression control read;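 0 = vehicle wells; hits needed this value within 50% of zero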
* hit, by the source's call; i = inactive; nt = no result given; + = active, no number; & = joins results of further samples. Outcome played no part in choosing rows. Share with any hit: about 3%.

SMILES	Yeast UUG start	PABP polyA inh	CSC inhib	eIF4H FP inh	Rce1 inhib	MT1-MMP act inh	MT1-MMP act inh RFP	HIV Env fusion	others
Cc1nn(C)c(C)c1/C=N/NC(=O)CCn1cc([N+](=O)[O-])cn1	nt	4	-19	2	i	2	6	2
CC(COc1ccc(C(C)C)cc1)NC(=O)c1ccc(Br)o1 (stereo unspecified)	11	-3	8	-8	i	4	0	2
CCN1C(=O)N(c2ccc(C(C)=O)cc2)S(=O)(=O)c2ccccc21	-6	-2	nt	-3	i	6	8	-3
Cc1ccc(CNS(=O)(=O)c2ccc(-c3cnc(C4CC4)o3)cc2)cc1	8	2	16	10	i	1	4	2
COC(=O)c1ccc(NC(=O)c2ccc3nccnc3c2)cc1	-11	9	4	-21	i	1	-3	-7
COc1ccc(Cc2nnc(NC(=O)c3ccc(OC)c(OC)c3)s2)cc1OC	-10	-15	9	-3	i	3	-2	3
O=C1c2ccccc2C(=O)C2OC12 (stereo unspecified)	nt	16	49	15	i	nt	nt	nt
COc1ccccc1-c1ccc(SCC(=O)NCc2ccc3c(c2)OCO3)nn1	nt	-5	-11	-4	i	1	-1	12
CCc1nn2c(N3CCOCC3)cc(C)nc2c1-c1ccc(F)cc1	-25	2	nt	-9	i	-10	-8	nt
COc1ccc(OC)c(-c2csc(NC(=O)CSCc3c(C)noc3C)n2)c1	nt	nt	nt	nt	i	-6	-5	-46
C#CCOCCOCCOCCNc1nc(N2CCOCC2)nc(N2CCN(C(=O)[C@H](CC(N)=O)n3cc([C@@H](N)C(C)C)nn3)CC2)n1	31	nt	-12	nt	nt	-1	2	-13
CCOc1cc(C(=O)Nc2ccc(N3CCN(C(C)=O)CC3)cc2)cc(OCC)c1OCC	-15	-2	-3	-13	i	-2	-5	6
COCCNC(=O)C(OC(=O)C1=Cc2ccccc2OC1)C(C)C (stereo unspecified)	nt	0	nt	0	i	0	3	17
O=C(Nc1ccc2c(c1)OCCO2)c1ccncc1	-12	8	2	10	i	-2	-4	-46
CC(=O)C1CCC2C3CCC4=CC(=O)CCC4(C)C3C(O)CC12C (stereo unspecified)	9	nt	nt	nt	nt	3	-1	-36
COc1cc(NC(=O)c2cc(-c3ccc4c(c3)OCO4)on2)cc(OC)c1OC	-10	4	54	-13	i	11	-12	1
Cc1c(Cl)cccc1N(Cc1ccc(C(=O)O)cc1)S(=O)(=O)c1ccccc1	nt	4	-15	-4	i	-8	-2	3
CC1(C)CC(NC(=O)C23CCC(C)(C(=O)C2=O)C3(C)C)CC(C)(C)N1 (stereo unspecified)	-16	1	7	3	i	1	1	-7
COc1ccc(CCN2C(=O)CC(Sc3ncccc3C(=O)O)C2=O)cc1OC (stereo unspecified)	5	5	-12	9	i	1	0	-54
O=C1c2ccccc2C(=O)N1CC1c2ccccc2CCN1S(=O)(=O)c1cnc[nH]1 (stereo unspecified)	-3	1	-4	-4	i	2	6	nt
O=C(CCCCCn1c(=S)[nH]c2ccc(Br)cc2c1=O)NCC1CCCO1 (stereo unspecified)	-15	-2	-3	-15	i	-2	3	-34
O=C1[C@@H]2[C@@H]3C[C@@H]([C@H]4ON=C(c5ccc(Cl)cc5)[C@@H]34)[C@@H]2C(=O)N1c1ccc2c(c1)OCO2	nt	-1	0	-2	i	6	-3	-2
CCC(C)C(NC(=O)/C(=C\c1ccccc1)NC(=O)c1ccc(OC)cc1)C(=O)O (stereo unspecified)	nt	6	-8	-9	i	4	0	5
CCN(CC)CCCNC(=O)c1cc2c(=O)n(CC)c3ccccc3c2s1	-5	-4	13	0	i	12	5	-8
CCOC(=O)C1CCCN(c2c(N3CCOCC3)c(=O)c2=O)C1 (stereo unspecified)	-24	-2	-5	-4	i	3	0	10
O=C(CN1CCN(Cc2ccccc2Cl)C1=O)N1CCCCCC1	-8	-3	-7	-3	i	3	4	nt
Cc1ccc(-n2nc(C)c(NS(=O)(=O)c3ccccc3)c2C)cc1C	-5	-3	-10	10	i	0	-1	-18
CC1Cc2nc(SCC(=O)Nc3ccc4c(c3)OCO4)n(-c3ccc(F)cc3)c(=O)c2S1 (stereo unspecified)	-2	2	6	-6	i	5	2	22
COc1cccc2cc(C(=O)c3ccc([N+](=O)[O-])cc3)oc12	nt	-1	nt	-4	i	4	-4	-79
CCCCN=C(C)c1c(O)c2ccccc2oc1=O	-17	13	-1	5	i	6	1	nt
CCN1CCN(C(=O)c2ccccc2N(Cc2ccccc2)S(=O)(=O)c2ccc(C)cc2)CC1	0	4	8	-3	i	-11	-6	-18
CC(CC(=O)NCCc1ccc(S(N)(=O)=O)cc1)c1ccccc1 (stereo unspecified)	-21	3	-6	5	i	-1	4	-8
CCN(CC)c1ccc(C(=O)c2ccccc2C(=O)O)c(O)c1	-10	-6	-10	44	+	11	14	-53
CN(NS(C)(=O)=O)c1c(C#N)c(C(F)(F)F)nn1C	nt	-14	-1	6	i	0	6	3
Cc1ccc(CNC(=O)Cn2c(=O)n(CC(=O)N3CCCCC3)c(=O)c3sccc32)cc1	-15	-2	-15	3	i	-5	1	11
Cc1cccc(/C=N/NC(=O)c2ccc3c(c2)OCCO3)c1O	-68	-16	-20	-18	i	-3	-8	-103
CCCn1c(SCC(=O)NC2CCCCC2C)n[nH]c1=O (stereo unspecified)	-13	0	-6	0	i	0	-3	-141
NS(=O)(=O)c1ccc2nc(NC(=O)c3ccc(Br)o3)sc2c1	nt	22	3	-4	i	-1	1	-39
CCOC(=O)c1cnn(CCOC(=O)c2cccs2)c1NC(=O)c1cccs1	nt	8	nt	-2	nt	-5	2	8
COc1ccc(C)cc1S(=O)(=O)n1nc(C)cc1C	-8	-12	-5	-4	i	-7	-3	22
O=C(c1cc([N+](=O)[O-])ccc1N1CCOCC1)N1CCN(c2ccccc2)CC1	11	15	nt	1	i	17	3	-106
O=C(COC(=O)c1oc2ccccc2c1CSc1ccc(Cl)cc1)NC1CCCC1	nt	-7	33	1	i	-2	-4	14
COc1ccc2nc(C)cc(SCC(=O)N/N=C/c3c(OC)ccc4ccccc34)c2c1	nt	0	8	61	i	-4	0	18	eIF4H FP inh retest=-10;PABP polyA inh retest=5
Cc1cccc(NC(=O)c2nc[nH]c2C(=O)N[C@@H](Cc2ccccc2)C(=O)OCc2ccccc2)c1	9	13	-12	15	i	3	3	6
CCn1nnnc1SCC(=O)Nc1sc(C)c(C)c1C#N	nt	-8	nt	5	i	4	-1	nt
NS(=O)(=O)c1ccc(NC(=O)COC(=O)COc2ccc3ccccc3c2)cc1	-17	0	-4	-2	i	4	6	4
CNS(=O)(=O)c1cccc(C(=O)NNC(=O)CN(C)S(=O)(=O)c2ccc(Cl)cc2)c1	10	nt	-1	nt	i	nt	nt	5
CC(=O)c1ccc(NC(=O)CC(NCCC2=CCCCC2)C(=O)O)cc1 (stereo unspecified)	nt	21	-12	-1	i	-3	1	38
COC(=O)c1ccc(NCC(=O)Nc2cc(C)cc(C)c2)cc1	-8	25	10	-6	i	1	0	19
C=CCSc1ncccc1C(=O)O	nt	-8	-11	3	i	-1	-3	-19
N#C/C(=C\Nc1ccc2cn[nH]c2c1)c1nc(-c2ccc(Cl)cc2)cs1	nt	-1	33	10	i	-85	2	-26
CSc1ccccc1C(=O)OCC(=O)NC1CC1	-20	nt	nt	nt	nt	-4	3	25
Cc1ccc(NC(=O)CCc2nc(-c3cccs3)no2)c(Br)c1	-4	4	-11	-2	i	5	4	-10
CC(=O)Nc1cccc(C(=O)OCC(=O)c2ccccc2Cl)c1	nt	6	-8	0	i	1	-1	-73
Cc1ccccc1OCC(=O)NNC(=O)c1cc(S(=O)(=O)N2CCOCC2)ccc1N1CCCC1	-2	nt	0	nt	i	1	1	1
O=c1[nH]c2cc3c(cc2cc1CN(CC1CCCO1)S(=O)(=O)c1ccc(Cl)cc1)OCCO3 (stereo unspecified)	-13	9	-18	6	i	-2	-4	nt
O=C(Nc1ccc(Cl)c(C(F)(F)F)c1)C1Cc2c(-c3ccccc3Oc3ccccc3)ccnc2O1 (stereo unspecified)	-19	nt	nt	nt	nt	-8	-16	31
CC(C)(C)c1ccc(-c2noc(CCC(=O)N3CCOCC3)n2)cc1	nt	3	48	-7	i	-1	-9	1
Cn1c(=O)c2c(ncn2CC(COCc2ccc(Cl)cc2)OCc2ccc(Cl)cc2)n(C)c1=O (stereo unspecified)	11	-5	26	-6	i	-2	-13	nt
COc1ccc(S(=O)(=O)N(CC(=O)N/N=C/c2ccc(C(=O)O)cc2)Cc2ccccc2)cc1OC	-13	13	-12	0	i	nt	nt	5

Part of the list above in order of length of the SMILES, descending:
SMILES	Yeast UUG start	PABP polyA inh	CSC inhib	eIF4H FP inh	Rce1 inhib	MT1-MMP act inh	MT1-MMP act inh RFP	HIV Env fusion	others
CC(=O)c1ccc(NC(=O)CC(NCCC2=CCCCC2)C(=O)O)cc1 (stereo unspecified)	nt	21	-12	-1	i	-3	1	38
CCn1nnnc1SCC(=O)Nc1sc(C)c(C)c1C#N	nt	-8	nt	5	i	4	-1	nt
CSc1ccccc1C(=O)OCC(=O)NC1CC1	-20	nt	nt	nt	nt	-4	3	25
C=CCSc1ncccc1C(=O)O	nt	-8	-11	3	i	-1	-3	-19

(continued)
SMILES	Yeast UUG start	PABP polyA inh	CSC inhib	eIF4H FP inh	Rce1 inhib	MT1-MMP act inh	MT1-MMP act inh RFP	HIV Env fusion	others
Cc1ccccc1Nc1c(-c2cccnc2)nc2cccc(C)n12	nt	-4	-6	-6	i	-4	-11	28
Cc1cccc(-c2ocnc2C(=O)Nc2ncc(C)s2)c1	-20	nt	nt	nt	nt	-9	5	21
O=C(NC1c2ccccc2Oc2ccccc21)c1ccc([N+](=O)[O-])cc1	-12	nt	nt	nt	nt	4	-1	-36
C[C@H](CO)N1C[C@H](C)[C@@H](CN(C)S(=O)(=O)c2cn(C)cn2)Oc2ncc(Br)cc2C1=O	-1&-21	nt	nt	nt	nt	5	5	-36
Cn1c(=O)[nH]c(=O)c2c1nc(N1CCN(CCO)CC1)n2CCSc1nc2ccccc2s1	-4	-5	-4	2	i	-2	5	10
COc1cc(CNc2ccc3[nH]c(=O)[nH]c3c2)ccc1OCc1ccccc1Cl	-17	-7	11	-7	i	4	-5	-6
Nc1cc(=O)nc(SCC(=O)NCc2ccccc2)n1CCc1ccccc1	-2	-2	-1	-12	i	4	-2	-24
CSc1sc(C(=O)NCC2CC2)c(-c2cccs2)c1C#N	-17	2	59	-5	i	1	-4	5
COC(=O)c1ccc(NC(=O)C2CCCN(S(C)(=O)=O)C2)cc1 (stereo unspecified)	-17	2	-8	6	i	2	3	-32
CC(=O)Nc1cccc2c1C(=O)NC2=O	-25	-2	-4	-14	i	-2	2	nt
CCOC(=O)N1CCC(N2CC34C=CC(O3)C(C(=O)O)C4C2=O)CC1 (stereo unspecified)	3	16	-4	9	i	5	5	-14
CC(=O)Nc1ccc2ccccc2c1[N+](=O)[O-]	-6	nt	nt	nt	nt	7	6	-2
CCOC(=O)C(NC(=O)NCc1ccccc1OC)(OCC)C(F)(F)F (stereo unspecified)	nt	0	4	-6	i	3	0	12
O=C(O)CCCc1ccc2c(c1)CCc1ccccc1-2	-19	nt	8	nt	i	-1	3	63*
COc1cc2c(cc1OC)CN(CC(=O)Nc1ccc(S(=O)(=O)N(C)C)cc1)CC2	-13	1	nt	1	i	0	-2	-2
O=C1NC(=O)/C(=C/C(=O)N2CCOCC2)S1	12	7	-1	-5	i	0	5	2
